Screening data deposited in PubChem by several laboratories.
VCAM-1 rise: enhancers of VCAM-1 display on endothelial cells, cell-based, plate reader, pooled HUVEC, TNFa stimulus (AID 455). augmentation, % at 5 µM. HUVEC TNFa-induced VCAM-1 immunofluorescence, plate reader; numbers were filed only for top-ranked candidate wells. 10,000 tested, 0.2% active;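 active means a compound raising TNF-alpha-driven VCAM-1 surface staining, with its hit status upheld on visual or statistical review; inactive means the rest, including hits rejected on review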;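 further: 0% = TNFa with vehicle and 100% = strongest image-checked hit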
26S disassembly: inhibitors of ATP-driven 26S proteasome dissociation, primary screen, biochemical, bead-based flow cytometry, GFP-tagged proteasome; 24,000 tested, 0.2% active; anti-FLAG beads, GFP-proteasome disassembly; AID 751, 2007; inhibition of disassembly, % (test concentration not listed);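 active means above 40%; inconclusive means likely self-fluorescent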;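 further: plate controls were ATP control with full disassembly for no effect and ATP-gamma-S intact proteasomes for full effect; higher percent means more bead fluorescence retained so stronger block of disassembly; stock transfer was 100 nL into about 10 µL; wells with too few beads may also be inconclusive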
An asterisk follows results filed as active; i = inactive; ? = inconclusive; · = no result given. This is a subset; rates above refer to the full screens.

No.	SMILES	26S disassembly	VCAM-1 rise
1	O=C(Cc1cccs1)Nc1nnc(CCc2ccccc2)s1	1.9	i
2	N#Cc1c(/N=C/c2ccco2)sc2c1CCC2	-1.2	i
3	CCOC(=O)c1sc(NC(NC(=O)c2ccco2)(C(=O)OC)C(F)(F)F)nc1C (stereo unspecified)	0.7	·
4	CCC(=O)N1CCc2cc(S(=O)(=O)CCC(=O)Nc3ccc(C)c(F)c3)ccc21	0.7	i
5	COc1cccc(NC(=O)Cn2c(=O)n(CCCC(=O)NCc3ccco3)c(=O)c3ccccc32)c1	-1.0	·
6	COc1cccc(CC(=O)NCC2COc3ccccc3O2)c1OC (stereo unspecified)	-1.6	·
7	CCCCCSc1nc2c(cnn2-c2ccccc2)c(=O)[nH]1	0.4	i
8	CSCCC(NS(=O)(=O)c1ccc2c(c1)oc(=O)n2C)C(=O)NC1CCCCC1 (stereo unspecified)	-0.7	i
9	Cn1c(=O)cc(OCCCC(=O)Nc2ccccn2)c2ccccc21	-0.1	·
10	O=C(c1cnc2ccccn2c1=O)N1CCc2ccccc21	0.8	·
11	CCN(c1cccc(C)c1)S(=O)(=O)c1ccc2c(c1)CCN2C(C)=O	-1.3	·
12	CCCCNC(=O)C(NS(=O)(=O)c1cccc2nsnc12)c1ccccc1 (stereo unspecified)	1.5	·
13	COc1ccc(NS(=O)(=O)c2ccc(NC(C)=O)cc2)cc1OC	-2.0	i
14	CC1CCCCN1CCn1cnc2c([nH]c3ccccc32)c1=O (stereo unspecified)	0.1	·
15	Cc1c(C(=O)NCCC2=CCCCC2)oc2ccc(S(=O)(=O)N3CCC4(CC3)OCCO4)cc12	1.5	i
16	Cc1nc(NC2=NCN(CC3CCCO3)CN2)nc2ccccc12 (stereo unspecified)	?	i
17	CCn1c(=O)cc(OCC(=O)NCCC(C)C)c2ccccc21	-1.4	·
18	CCC(=O)N1CCc2cc(S(=O)(=O)CCC(=O)NCCC3=CCCCC3)ccc21	1.1	·
19	CCOC(=O)N1CCC(NC(=O)C2CCN(S(=O)(=O)c3cnc[nH]3)CC2)CC1	-2.2	·
20	Cc1cc(SCC(=O)c2ccccc2)n2nc(C)nc2n1	-0.6	·
21	CC(C)(C)OC(=O)NCCc1nnc(SCC(=O)c2ccc(Cl)cc2)o1	-1.2	i
22	O=C(C1CCN(S(=O)(=O)c2cccc3cccnc23)CC1)N1CCN(c2ccccc2)CC1	0.9	·
23	Cc1cc(=O)[nH]c(SCC(=O)Nc2nc(-c3ccccc3)cs2)n1	1.7	·
24	Cc1cc2ccccc2c(=O)[nH]1	0.7	·
25	Cc1ccc(-c2nc(CS(=O)CC(=O)NC3CCCC3)c(C)o2)cc1 (stereo unspecified)	3.6	·
26	CCCCOc1ccc(C(C)NC(=O)C2CCCN(S(=O)(=O)CC)C2)cc1 (stereo unspecified)	-1.6	·
27	CC(NC(=O)C12CC3CC(CC(C3)C1)C2)C(=O)NCCN(C)C (stereo unspecified)	1.3	·
28	CN(C)S(=O)(=O)c1ccc2c(c1)c(=O)c(C(=O)N1CCOCC1)cn2C	-1.2	·
29	CCOCCCNC(=O)C(NC(=O)CC1NC(=O)NC1=O)c1ccc(Cl)cc1 (stereo unspecified)	-0.3	·
30	CC(C)C(=O)N(c1ccc2oc(=O)sc2c1)S(=O)(=O)c1cccs1	2.9	·
31	N#Cc1cnn(Cc2ccc(Cl)cc2)c1N	0.2	i
32	CC(=O)c1ccc(N2CCN(C(=O)c3ccc4c(=O)n(-c5ccccc5)c(=O)[nH]c4c3)CC2)cc1	-0.3	·
33	Cc1ccc(S(=O)(=O)N2CCN(C(=O)N3CCOCC3)C2c2ccc(N(C)C)cc2)cc1 (stereo unspecified)	-0.2	i
34	COc1ccccc1N1CCN(C/C(O)=C(\C#N)c2nc(-c3ccccc3)cs2)CC1	4.7	i
35	CCOc1ccccc1C(=O)NCCCn1ccnc1	0.7	i
36	Cc1ccc(C(=O)NC(Cc2c[nH]c3ccccc23)C(=O)O)o1 (stereo unspecified)	1.8	i
37	CCOC(=O)c1ccc(N2C(=O)CC(Sc3nnc(C)s3)C2=O)cc1 (stereo unspecified)	?	i
38	COc1ccccc1-c1noc(-c2cccnc2)n1	1.1	i
39	O=c1[nH]c2ccc(Cl)cc2c(=O)n1Cc1ccco1	0.1	·
40	CCOC(=O)C1=C(O)CCn2c1nc1ccccc12	-0.1	i
41	CCOC(=O)C1CCN(C(=O)CCNC(=O)c2cc(OC)c(OC)c(OC)c2)CC1	0.8	·
42	CCOC(=O)C1CCN(C(=O)C2CCN(S(=O)(=O)c3cccc4cccnc34)CC2)CC1	1.4	·
43	Cc1cc(Nc2cccc(C)c2C)n2nc(C)nc2n1	0.4	·
44	COc1ccc(C(=O)Nc2ccc3oc(-c4cccc(F)c4)nc3c2)cc1OC	-1.8	·
45	COc1ccc(NC(=O)N(Cc2cccnc2)Cc2ccccc2Cl)c(OC)c1	-1.4	·
46	Cc1cccc(N2CCN(C(=O)CCNC(=O)Cn3ccc4ccccc4c3=O)CC2)c1C	1.1	·
47	COC(=O)c1ccccc1NC(=O)CSc1nc2c(c(=O)n(C)c(=O)n2C)n1C	-1.4	i
48	CCOC(=O)C1CCCN(C(=O)c2cccs2)C1 (stereo unspecified)	-5.9	i
49	COc1ccccc1NC(=O)CSc1nnc(-c2ccncc2)o1	-4.0	i
50	Cn1c(Cn2c(=O)sc3ccccc32)nnc1SCC(=O)N1CCCCCC1	-2.0	·
51	O=C(c1cnc2n(c1=O)CCS2)N(C1CCCCC1)C1CCCCC1	-0.3	i
52	COC(=O)c1ccccc1NC(=O)C1CC=CCC1C(=O)O (stereo unspecified)	0.5	i
53	Clc1cccc(-c2nnc3sc(-c4ccccc4)nn23)c1	-2.3	i
54	Cn1c(C(=O)NCCc2c[nH]c3ccccc23)cc2sccc21	-0.4	·
55	COc1cc(C2C(C#N)=C(N)Oc3cc(C)oc(=O)c32)ccc1OC(=O)N1CCOCC1 (stereo unspecified)	-1.0	·
56	Cc1nn(Cc2ccccc2)c(C)c1NC(=O)c1cc(-c2ccco2)on1	1.1	i
57	Cc1ccc(CSc2nnc(Cn3c(=O)sc4ccccc43)n2C)cc1	-0.8	·
58	CCOC(=O)C1=C(C)N(C)C(=O)NC1c1cccc(O)c1 (stereo unspecified)	0.2	i
59	COc1cc(C)c(C(C)C)cc1S(=O)(=O)n1cnc(C)c1	0.0	·
60	O=C(CSc1nc2ccc(Cl)cc2[nH]1)NCc1ccco1	-2.7	i

Entries listed so far that contain two or more sulfur atoms:
No.	SMILES	26S disassembly	VCAM-1 rise
1	O=C(Cc1cccs1)Nc1nnc(CCc2ccccc2)s1	1.9	i
8	CSCCC(NS(=O)(=O)c1ccc2c(c1)oc(=O)n2C)C(=O)NC1CCCCC1 (stereo unspecified)	-0.7	i
12	CCCCNC(=O)C(NS(=O)(=O)c1cccc2nsnc12)c1ccccc1 (stereo unspecified)	1.5	·
23	Cc1cc(=O)[nH]c(SCC(=O)Nc2nc(-c3ccccc3)cs2)n1	1.7	·
30	CC(C)C(=O)N(c1ccc2oc(=O)sc2c1)S(=O)(=O)c1cccs1	2.9	·
37	CCOC(=O)c1ccc(N2C(=O)CC(Sc3nnc(C)s3)C2=O)cc1 (stereo unspecified)	?	i
50	Cn1c(Cn2c(=O)sc3ccccc32)nnc1SCC(=O)N1CCCCCC1	-2.0	·
57	Cc1ccc(CSc2nnc(Cn3c(=O)sc4ccccc43)n2C)cc1	-0.8	·

More records
No.	SMILES	26S disassembly	VCAM-1 rise
61	O=C(CN1CCC2(CC1)OCCO2)c1ccc2cc[nH]c2c1	0.1	·
62	CC(C)Cc1cc(C(=O)Nc2ccc(F)cc2F)no1	-1.0	·
63	O=C(NCc1ccco1)C1CCCCN1S(=O)(=O)c1ccc(F)cc1 (stereo unspecified)	-0.5	·
64	Cc1cc2c(c(Sc3ccccc3)n1)C(=O)OC2	1.0	·
65	O=C(NCc1ccco1)c1c[nH]c2ccc(S(=O)(=O)N3CCOCC3)cc2c1=O	0.9	·
66	CCc1ccccc1N(C)C(=O)CCc1nc(-c2ccc(C)cc2)no1	-1.1	·
67	C=CC(=C)CC(NC)c1ccccc1 (stereo unspecified)	20	·
68	COc1ccc(NC(=O)CSc2nccn2-c2cccc(OC)c2)cc1	-0.2	·
69	Cc1ccc2oc(=O)n(CCOc3ccccc3Cl)c2c1	-3.5	·
70	O=C(NC1CCN(Cc2ccccc2)CC1)C1CCN(S(=O)(=O)c2cccc3nsnc23)CC1	0.0	·
71	COCCNC(=O)c1ccc(N2CCCCC2)c(NS(=O)(=O)c2ccc(C)cc2)c1	-0.1	·
72	Cc1nc2ccccn2c1/C(O)=C1\C(=O)C(=O)N(CCN2CCOCC2)C1c1cccs1 (stereo unspecified)	0.8	i
73	Cc1noc(C)c1S(=O)(=O)N(C)CC(=O)NCc1ccccc1	0.4	·
74	CCN(Cc1nc2ccccc2c(=O)[nH]1)Cc1cc(=O)oc2cc(C)c(C)cc12	0.5	i
75	CCN1CCN(C(c2cccs2)C(C)NC(=O)c2cccc(OC)c2OC)CC1 (stereo unspecified)	1.1	·
76	COc1ccc(NC(=O)C(F)(OC)C(F)(F)F)c(OC)c1 (stereo unspecified)	-3.2	·
77	O=C1NCCN1Cc1cccc(Cl)c1	2.8	·
78	Cc1nnc2n(-c3ccc(Cl)cc3)c(=O)c3c4c(sc3n12)CN(C)CC4	3.0	i
79	CC(=O)c1c(C)nn(C(=O)c2cccs2)c1C	1.2	·
80	Cc1cc(C)n(S(=O)(=O)c2cc(Cl)ccc2Cl)n1	1.0	·
81	CC(NCCc1ccc(O)cc1)C(O)c1ccc(O)cc1 (stereo unspecified)	-0.2	i
82	Cc1oc(-c2ccccc2F)nc1CS(=O)(=O)CC(=O)N1CCCCCC1	0.3	i
83	CCOC(=O)c1c(NCc2ccc3c(c2)OCO3)c2ccccc2[nH]c1=O	0.6	i
84	O=C(c1cnn2c(C(F)F)cc(-c3ccccc3)nc12)N1CCN2CCCC2C1 (stereo unspecified)	0.0	i
85	O=C(CNS(=O)(=O)c1ccc(Br)s1)N1CCN(c2ncccn2)CC1	-0.2	i
86	c1cnc(N2CCN(c3nc4ccccc4n4cnnc34)CC2)nc1	0.7	·
87	COc1cccc(NC(=O)N(Cc2ccco2)C(C)c2cccs2)c1 (stereo unspecified)	0.4	i
88	CN(C)CCNC(=O)c1ccc(CS(=O)(=O)c2ccc(Br)cc2)o1	0.2	·
89	Cn1c(=O)c(=O)n(C)c2cc(S(=O)(=O)N3CCC(N4CCCCC4)CC3)ccc21	-3.0	·
90	O=C(Cn1nc(Cc2cccnc2)c2ccccc2c1=O)NCCCN1CCCC1=O	4.2	·
91	COCCn1cc(C(=O)N2CCCC(C)C2)c2c3ccccc3n(C)c2c1=O (stereo unspecified)	-1.1	·
92	CCNS(=O)(=O)c1c(C)cc(N2CCCC2=O)cc1C	-1.1	i
93	CCCCN(C)CCCNC(=O)c1cccc(N2CCCC2=O)c1	-0.8	·
94	O=C(CN(CCc1ccccc1)C(=O)CNS(=O)(=O)c1ccccc1)NCC1CCCO1 (stereo unspecified)	0.0	i
95	NS(=O)(=O)c1ccc(NCc2c(F)cccc2Cl)cc1	1.0	i
96	Cc1cc(N2C(=O)C3C4C=CC(C4)C3C2=O)ccc1Br (stereo unspecified)	-1.3	i
97	CCOC(=O)c1cc2c(=O)n3ccccc3nc2n(CCOC)c1=NC(=O)c1ccncc1	-2.4	·
98	COc1ccc(C2(C(=O)Nc3cc(C)on3)CCOCC2)cc1	-0.4	i
99	CC(C)(NCc1ccccc1Cl)C(=O)O	0.2	·
100	COCCCN1C(=O)C(O)=C(C(C)=O)C1c1ccccn1 (stereo unspecified)	2.6	i
101	COC(=O)Cn1c(=NC(=O)CSCC(=O)Nc2cc(C)on2)sc2ccccc21	0.2	i
102	O=C(NCC1COc2ccccc2O1)c1ccccc1 (stereo unspecified)	-1.2	i
103	CCOc1ccccc1C(=O)N1CCN=C1SCc1cccnc1	-0.2	·
104	Cc1cccc(-n2ccnc2SCC(=O)Nc2nccs2)c1C	0.0	·
105	Cn1c(C(=O)N2CCN(c3ccc(Cl)cc3)CC2)cc2c(=O)n(C)c3ccccc3c21	-0.4	·
106	O=C(Cn1cc2c(n1)CCCC2)N1CCOCC1	0.2	·
107	Cc1sc2ncnc(OCC(=O)N3CCN(S(=O)(=O)c4ccccc4)CC3)c2c1C	0.6	i
108	COCCNC(=O)C(c1ccncc1)N(C(=O)Cn1nnc2ccccc21)c1ccc(OC)cc1 (stereo unspecified)	-0.1	i
109	O=C(Nc1cccc2ccccc12)N1CCN(c2ccccc2)CC1	-0.2	i
110	C=CCNc1nc(-c2ccccc2)nc(-n2ccnc2)n1	-0.1	·
111	Cc1cccn2c(=O)c3cc(C#N)c(=O)n(CCCN4CCOCC4)c3nc12	3.4	i
112	Cc1cc(NC(=O)C2CCCCC2)nc2c1c(=O)oc1ccccc12	10	·
113	COC(=O)c1ccc2nc(C(F)(F)F)[nH]c2c1	-0.8	·
114	COC(=O)CCCCCc1ccc(C(C)=O)s1	-1.1	i
115	CCN1CCN(C(c2cccs2)C(C)NC(=O)CC(C)C)CC1 (stereo unspecified)	-1.2	·
116	Cc1ccc(OCCNC(=O)c2ccccc2N)cc1	0.1	·
117	CCOc1ccc(CCNC(=O)CN2CCN(Cc3ccccc3C)C2=O)cc1OCC	-3.5	·
118	O=C1c2ccccc2C(Nc2ccc3c(c2)OCCO3)N1c1ccccn1 (stereo unspecified)	1.4	·
119	CCOC(=O)c1sc2nc(CC(=O)OC)nc(NCC(=O)OC)c2c1C	-0.7	·
